HPGD block: HPGD (human) dehydrogenase inhibition. purified HPGD, NADH fluorescence kinetic, PGE2 substrate. Potency, µM, for inactives: top-dose activity change, negative = inhibition, actives largely listed as inhibitors. 150,000 compounds, 4.3% hits. AID 894; active = well fitted inhibition curve with a large enough effect (not every such curve was filed as active); inconclusive = small, poorly fitted or top-dose-only effect, or another doubt; inactive = no such curve, though single readings can be large or run the other way;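 note: top concentration of the series not given in the record; plate controls included wells without enzyme; inactives centre near -10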
Target sequence (P15428 whole entry, looked up): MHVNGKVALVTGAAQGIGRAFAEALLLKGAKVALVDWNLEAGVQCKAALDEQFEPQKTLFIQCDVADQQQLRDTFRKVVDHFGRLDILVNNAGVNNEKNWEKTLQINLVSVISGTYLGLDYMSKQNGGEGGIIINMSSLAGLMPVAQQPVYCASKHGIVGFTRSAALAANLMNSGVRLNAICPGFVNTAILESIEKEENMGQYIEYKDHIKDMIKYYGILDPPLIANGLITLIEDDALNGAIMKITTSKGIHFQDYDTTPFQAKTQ
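NADH formation kinetics: reaction with 30 uM PGE2 and 1 mM NAD+ (final), 20 nM enzyme, Tris-HCl pH 8 with Tween 20, after 15 min compound preincubation at room temperature. Fluorescence change, last versus first of five reads.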
Starred values were filed as active, the others as inactive; ? = inconclusive; & = joins results of further samples; ! = a repeat was not active. % is set by controls: 0 for no effect and ±100 for the full control effect; potency is the fitted concentration of half-maximal effect. Not all compounds are listed; the hit share may differ from the screen's.

HPGD block | Molecule
-5% | Cc1[nH]c2ccccc2c1SCC(=O)N1CCN(c2ccccc2)CC1
-5% | O=C(O)C1CCCN1S(=O)(=O)c1ccc2c(c1)CCC2 (centres undefined)
-8% | CCCCn1c(-c2nn(C)cc2Cl)n[nH]c1=S
-5% | CCOc1ccc(CNC(=O)C2CCCN(S(C)(=O)=O)C2)cc1OC (centres undefined)
-8% | Cc1cc(C)nc(/N=C2/NC(=O)CS2)n1
? | O=C(COC(=O)c1cccc2ccccc12)Nc1cccnc1Cl
-29% | Cc1cc(C(=O)Nc2nc3c(s2)CCCC3)cs1
-17% | CC(=O)c1ccc(NC(=O)c2ccn(C(=O)OCC(C)C)n2)cc1

A different layout for some results above:
canonical_smiles | HPGD block
Cc1[nH]c2ccccc2c1SCC(=O)N1CCN(c2ccccc2)CC1 | -5%
O=C(O)C1CCCN1S(=O)(=O)c1ccc2c(c1)CCC2 (centres undefined) | -5%
CCCCn1c(-c2nn(C)cc2Cl)n[nH]c1=S | -8%
CCOc1ccc(CNC(=O)C2CCCN(S(C)(=O)=O)C2)cc1OC (centres undefined) | -5%
Cc1cc(C)nc(/N=C2/NC(=O)CS2)n1 | -8%

Following part.
HPGD block | Molecule
-23% | c1ncc(-c2ccc3c(c2)OCO3)c(NCCc2cnc[nH]2)n1
-16% | CCOC(=O)C1=C(C)NC(C)=C(C(=O)OCCNC(=O)c2cccnc2)C1c1cccc([N+](=O)[O-])c1 (centres undefined)
-2% | Cc1ccc(S(=O)(=O)CCC(=O)OCc2ccc(Cl)cc2)cc1
? | CCOC(=O)c1sc(NC(=O)/C=C/c2cnn(C)c2C)c(C(=O)OCC)c1C
-10% | CCC1(N(C(C)=O)c2ccc(OC)cc2)C(=O)c2ccccc2C1=O
1% | COc1cccc(NC(=O)CN(Cc2ccccc2)S(C)(=O)=O)c1
-10%&-9% | CC1(C(=O)NCc2ccccn2)C=CCN1C(=O)c1ccccc1 (centres undefined)
-5% | COc1ccc(C(=O)Nc2c(C)ccc3nsnc23)cc1[N+](=O)[O-]

Continuation:
HPGD block | Molecule
-1% | COC(=O)CN(C(=S)Nc1ccc(F)cc1)C1CC(=O)N(c2ccc(OC)cc2)C1=O (centres undefined)
-14% | CC(C)CCn1c(CN2CCN(Cc3ccccc3)CC2)nc2c1c(=O)[nH]c(=O)n2C
? | CNC(=O)c1csc(-c2ccncc2)n1
2% | C/C(=N\O)C(=O)NCCCn1ccnc1
-3% | Cc1cc(C)nc(SCc2cccc(C(=O)O)c2)n1
-4% | Cc1cc(OCCOCCN2CCCC2)ccc1C(C)C
-10% | O=C(N/N=C/C=C/c1ccccc1)c1ccncc1
-2% | CC(C)Cc1nn2c(=O)cc(O)nc2s1

Next part
HPGD block | Molecule
? | CCOC(=O)C1CCCCN1C(=O)CCc1c(C)nc2cc(-c3ccccc3)nn2c1C (centres undefined)
3% | Cc1ccc(S(=O)(=O)N2CCN(C(=O)COc3ccc(NC(=O)c4ccco4)cc3)CC2)cc1
4% | CCOc1ccc(N2CC(C(=O)Nc3ccc(N4CCOCC4)cc3)CC2=O)cc1 (centres undefined)
? | CCOC(=O)c1nc(-c2ccccc2)oc1N(C)C
-6% | CCN(CC)CCC#CC(O)(c1ccccc1)c1ccccc1
-12% | Cc1cccc(NC(=O)NC(C)C(c2cccs2)N2CCOCC2)c1 (centres undefined)
-9% | O=C(C(Cc1ccccc1)N1C(=O)C2C3C=CC(C3)C2C1=O)N1CCCCC1 (centres undefined)
-2% | O=C1CCC/C(=N/NC(=O)C2CCN(S(=O)(=O)c3cccs3)CC2)C1

Remaining list, next part
HPGD block | Molecule
-12% | Cn1c(SCC(=O)NCCN2C(=O)CSC2=O)nc2ccccc2c1=O
? | Cc1ccc(CN(Cc2cc3cc4c(cc3[nH]c2=O)OCCO4)Cc2nnnn2Cc2ccco2)cc1
-2% | Cc1nn(-c2ccccc2)c(N)c1C(O)(CSc1nccn1C)C(F)(F)F (centres undefined)
-25% | O=C(Cc1ccccc1F)Nc1cccc2cccnc12
-11% | COc1ccc(CCNC(=O)Cn2cnc3c(nnn3Cc3ccccc3F)c2=O)cc1OC
-28% | COc1ccc(C(C)C)cc1S(=O)(=O)n1cnc(C)c1
-16% | CCNC(=S)N(Cc1ccc2c(c1)OCO2)C1CC(=O)N(c2ccc(OC)cc2)C1=O (centres undefined)
7% | O=C(N1CCOCC1)C1(c2ccccc2)CCCCC1

Following part.
HPGD block | Molecule
? | CC(C)N=c1scc(-c2cccs2)n1/N=C/c1ccc(O)c(O)c1O
? | CCN(CC)S(=O)(=O)c1ccc(NC(=O)c2cc(-c3cccs3)nc3ccccc23)cc1
-16% | CCn1cc(Br)c(C(=O)NCc2ccco2)n1
-22% | O=C(CCCCCNC(=O)c1ccccc1)N/N=C/c1ccccc1O
-14% | Cc1c(Cl)cccc1N/C(SCC(=O)N1CCCCCC1)=C(/C#N)c1nc2ccccc2s1
-7% | Cc1nc(C)c(CCNC(=O)c2ccccc2)s1
? | O=C(Nc1ccc2oc(=O)ccc2c1)c1ccco1
0% | c1ccc(Nc2nn[nH]n2)cc1

Remaining list, next part
HPGD block | Molecule
0% | Cc1ccc(C(c2nnnn2C2CCCC2)N2c3ccccc3CC2C)cc1 (centres undefined)
-10% | N#CCCSCc1ccc(OCC(=O)O)cc1
-28% | CC(=O)Nc1ccc(-c2cc3ccccc3o2)cc1
-7% | CCCOc1ccc(/C=C2\SC(=S)N(CC3CCCO3)C2=O)cc1 (centres undefined)
-23% | O=C(COC(=O)C12CC3CC(CC(C3)C1)C2)Nc1ccccc1F
6% | COc1ccc(C)cc1NC(=O)CN(c1ccc(F)cc1)S(C)(=O)=O
-10% | CCCCCCCCSc1nnc(-c2ccc(OC)cc2)o1
4.5µM* | Nc1nnc(SCC(=O)Nc2ccc3nc(SCC(=O)Nc4ccccc4)sc3c2)s1

The list continues.
HPGD block | Molecule
-11% | C/C(=N\NC(=O)C1(C)CC1(Br)Br)c1cccc(NC(=O)C2CCC2)c1 (centres undefined)
-12% | COc1ccc(-n2nnnc2SCC(=O)N2CCCC2)cc1OC
-2% | Cc1ccc(OCC(O)Cn2c(=N)n(CCN3CCOCC3)c3ccccc32)cc1 (centres undefined)
-16% | C=CCn1c(/N=C/c2ccc3c(c2)OCO3)nc2ccccc21
-1% | CCN(CC)C(=O)CSC(=Nc1ccccc1F)NC#N
-23% | COc1ccccc1/C=C/C=N/NC(=O)Cc1cccn1C
14µM*! | COc1cc(/C=C/C(=O)CC(=O)/C=C/c2ccc(O)c(OC)c2)ccc1O
-12% | CN(Cc1ccccc1)C(=O)CCNC(=O)Cn1cnc2ccccc2c1=O

(listing goes on)
HPGD block | Molecule
-10% | O=C(Nc1ccc2c(c1)OCO2)C1CCCN1C(=O)Nc1cccc(F)c1 (centres undefined)
-22% | Cc1ccccc1OCCNC(=S)Nc1ccccc1
? | COCCCNC(=O)c1ccc2nc3ccccc3c(=O)n2c1
-17% | COc1ccc(C2C(C#N)=C(N)Oc3n[nH]c(C)c32)cc1Cn1cc([N+](=O)[O-])cn1 (centres undefined)
1% | C=CCOc1ccc(/C(CC)=N/O)cc1OC
0% | O=C(Nc1ccccc1)N1CCCC2(CCN(C(=O)c3csnn3)CC2)C1
-8% | Cc1ccc(S(=O)(=O)N2CCSC2C(=O)O)cc1 (centres undefined)
-6% | C=CCn1c(=O)c2c(nc3n2CC(C)CN3c2cccc(OC)c2)n(C)c1=O (centres undefined)

Structures listed so far that bear a hit mark in HPGD block:
HPGD block | Molecule
4.5µM* | Nc1nnc(SCC(=O)Nc2ccc3nc(SCC(=O)Nc4ccccc4)sc3c2)s1
14µM*! | COc1cc(/C=C/C(=O)CC(=O)/C=C/c2ccc(O)c(OC)c2)ccc1O

(continued)
HPGD block | Molecule
-16% | Cc1oc(-c2ccc(Cl)cc2)nc1CN1CCC(C(=O)NCc2cccs2)CC1
-9% | O=C(CS(=O)(=O)Cc1ccccc1)NCc1ccc2c(c1)OCO2
-8% | O=C(O)c1ccccc1C(=O)N1CCN(c2cccc(Cl)c2)CC1
? | COc1ccc(-c2ccc(-c3noc(C4CCCCC4)n3)c(OC)n2)cc1
-27% | O=S(=O)(Nc1ccc(-c2csc(-c3ccccc3)n2)cc1)c1ccccc1
? | Brc1ccc(Cn2c(-c3cncs3)nc3ccccc32)cc1
-6% | CC1CC(C)CN(C(=O)c2cn(C)c3ccc(S(=O)(=O)N(C)C)cc3c2=O)C1 (centres undefined)
-11% | COc1ccc(C2/C(=C(/O)c3ccc4c(c3)CC(C)O4)C(=O)C(=O)N2CCN2CCOCC2)cc1 (centres undefined)

More compounds.
HPGD block | Molecule
-24% | COc1ccc2cc(C(=O)NCc3ccco3)c(=Nc3ccc(C(=O)O)cc3)oc2c1
-16% | COC(=O)c1ccc(C2/C(=C(/O)c3ccc(OC(C)C)cc3)C(=O)C(=O)N2c2cc(C)on2)cc1 (centres undefined)
0% | COCCn1c(C)cc(C(=O)COC(=O)c2ccc[nH]c2=O)c1C
-24% | Cc1cc(C)c2[nH]c(=O)c(C(c3nnnn3C(C)(C)C)N3CCN(C(=O)c4ccco4)CC3)cc2c1 (centres undefined)
-15% | O=C(COc1cnc2ccccc2n1)NCCC1=CCCCC1
-2% | O=C(NCc1ccc2c(c1)OCO2)c1ccc(CN2CCOCC2)cc1
? | CCOC(=O)c1cnn2c(C(F)(F)F)cc(-c3ccco3)nc12
-12% | CN(C)Cc1ccccc1-c1ccc2ncnc(N3CCOCC3)c2c1

Reprinted at random: two compounds from above, in no set order.
HPGD block | Molecule
-16% | COC(=O)c1ccc(C2/C(=C(/O)c3ccc(OC(C)C)cc3)C(=O)C(=O)N2c2cc(C)on2)cc1 (centres undefined)
0% | COCCn1c(C)cc(C(=O)COC(=O)c2ccc[nH]c2=O)c1C

Next part
HPGD block | Molecule
-10% | O=C(c1ccc(CS(=O)(=O)c2ccccc2)o1)N1CCN(c2ncccn2)CC1
-10% | Cc1c(CN(C)CCc2ccccc2)c(=O)n(-c2ccccc2)n1C
4µM* | CCS(=O)(=O)c1ccc2oc(Nc3ccc(C(C)C)cc3)nc2c1
-2% | C=CCc1ccc(OCCOCCNCCOC)c(OC)c1
-23% | CC(=O)N(/N=C/c1cccc(C)c1)c1nc(-c2ccc(Br)cc2)cs1
? | CCC(C)NC(=O)CSc1nc2c(sc3ccccc32)c(=O)n1CCCN1CCOCC1 (centres undefined)
-9% | COc1ccc2c(C(=O)CN3CCN(c4ccccc4)CC3)c[nH]c2c1
-10% | Cc1ccc(SC(C)C(=O)Nc2ccncc2)cc1 (centres undefined)

Continued.
HPGD block | Molecule
-2% | O=C(NNC(=S)NC(=O)c1ccccc1[N+](=O)[O-])c1ccccc1Cl
-3% | OC(CNC1CCCCC1)CN1CCN(CC(O)CNC2CCCCC2)CC1 (centres undefined)
-15% | Cc1noc(/C=C/N(C)C)c1S(=O)(=O)N1CCC(C(=O)O)CC1
-15% | CC(C)(C)NC(=O)COC(=O)/C=C/c1ccccc1[N+](=O)[O-]
-15% | CCN(CC(=O)Nc1ccc2c(c1)OCCO2)S(=O)(=O)c1cccs1
-20% | COc1ccc(-c2nc3ccccc3[nH]2)cc1
-7% | Cc1cccc(OCCC(=O)NCC(c2ccco2)N2CCCCC2)c1 (centres undefined)
-12% | Cc1cc(OC(=O)c2ccco2)c2c(C)cc(=O)oc2c1

The list goes on:
HPGD block | Molecule
-8% | O=C(O)CC1NC(=O)N(c2ccccc2)C1=O (centres undefined)
-12% | COc1cccc(OCC(=O)NNC(=O)c2ccc(-c3ccccc3)cc2)c1
-13% | Cn1c(=O)oc2cc(S(=O)(=O)N3CCCC(C(=O)Nc4ccc5c(c4)OCCO5)C3)ccc21 (centres undefined)
-20% | COC(=O)c1ccc(NC(=O)CCc2c(C)nc3ncnn3c2C)cc1
-6% | Cc1nnc(NC(=O)CSc2nnc(Cc3cccn3C)n2-c2cccc(C(F)(F)F)c2)s1
-11% | Cc1cnn(CCC(=O)NNC(=S)Nc2cccc(Cl)c2)c1
? | CCc1cc(C(c2cccc(OC)c2)N2CCOCC2)c(NC(=O)c2ccccc2)s1 (centres undefined)
7.9µM* | N#CC1=C2SCN(c3ccccc3)CN2C(=O)CC1c1ccccc1Cl (centres undefined)

New compounds follow:
HPGD block | Molecule
-26% | CC(C)OC(=O)c1cc2ccccc2[nH]1
? | O=C(CSc1ccc2nnc(-c3cccnc3)n2n1)NCc1ccc2c(c1)OCO2
25µM* | O=[N+]([O-])c1cc(S(=O)(=O)C(F)(F)F)ccc1Sc1nc2ccccc2s1
? | CS(=O)(=O)c1nc(-c2ccco2)cc(C(F)(F)F)n1
2% | COc1cc(NS(=O)(=O)c2ccc(NC(C)=O)cc2)nc(OC)n1
1% | N#CCCN1CCn2c1nc1ccccc12
-2% | C=C(C)CC1Nc2ccccc2NC1CC(=C)C (centres undefined)
-19% | C=CCNC(=O)/C(=C\C=C\c1ccccc1)NC(=O)c1ccc(OCCCC)cc1

Next section, overlapping the part above by five compounds.
HPGD block | Molecule
? | CS(=O)(=O)c1nc(-c2ccco2)cc(C(F)(F)F)n1
2% | COc1cc(NS(=O)(=O)c2ccc(NC(C)=O)cc2)nc(OC)n1
1% | N#CCCN1CCn2c1nc1ccccc12
-2% | C=C(C)CC1Nc2ccccc2NC1CC(=C)C (centres undefined)
-19% | C=CCNC(=O)/C(=C\C=C\c1ccccc1)NC(=O)c1ccc(OCCCC)cc1
-24% | Clc1ccc(CSc2nnc(-c3ccccn3)n2Cc2ccco2)c(Cl)c1
-5% | Cc1ccc(S(=O)(=O)N(C)c2ccccc2)cc1
-9% | CC(C)CNC(=O)CC(c1ccccc1)c1c(O)ccc2ccccc12 (centres undefined)
-16% | Cc1cccc(C(=O)N2CCN(c3ccc([N+](=O)[O-])c(N4CCOCC4)c3)CC2)c1
-16% | COc1ccc(NC(=O)Nc2cc(C)ccc2OC)cc1
-17% | CCNc1cc(N2CCN(S(=O)(=O)c3ccc4c(c3)CCCC4)CC2)ccc1[N+](=O)[O-]
? | CCCn1c(=O)c2ccccc2n2c(SCC(=O)c3ccc(CC)cc3)nnc12
-9% | CCOc1cccc(=O)c2c(C)n(C)c(C)c12

Source: PubChem BioAssay (National Center for Advancing Translational Sciences (NCATS))
